Bioassay records as filed in PubChem.
CtBP-E1A inh – qHTS Assay for Inhibitors of the CtBP/E1A Interaction; CtBP / adenovirus E1A interaction (AlphaScreen); AlphaScreen GST-E1A/His-CtBP binding, 1536-well; active compounds read low; control for the full effect not named in the record; activity change, % (test concentration not listed); 340,000 compounds, 0.49% hits; AID 651724, 2012; in the data active means activity change below about -65%; inconclusive means about -30% to -65%; inactive means above about -30%; also: % is scaled to controls: 0 for no effect and ±100 for the full control effect
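GST-E1A and His-tagged CtBP (125 nM each as 5X stock) were preincubated with pin-transferred compound for 2 h at 37 °C in the dark, then glutathione donor and nickel acceptor beads were added for 1 h before AlphaScreen reading.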
gsp antag – qHTS for Antagonists of gsp, the Etiologic Mutation Responsible for Fibrous Dysplasia/McCune-Albright Syndrome: qHTS. gsp-mutant cells, cAMP HTRF, 30 min; control for the full effect not named in the record. Potency, µM (highest dose often 76.9 µM), for the others: at the top dose activity change, negative = inhibition, actives largely listed as inhibitors. 340,000 compounds, 0.4% hits; active = falling curve of any shape with a large fitted effect; inconclusive = falling curve, mostly with a smaller effect; inactive = flat or rising curve; cell line not stated here;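 also: intracellular cAMP measured with PDE inhibitor Ro 20-1724 present during compound exposure; potency is read from the fitted curve at half-maximal effect; % is scaled to controls: 0 for no effect and ±100 for the full control effect; nearly all actives have a fitted effect of over 65% in size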
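Cells, 2000/well, grown 16–24 h in DMEM 10% FBS with 0.5 mg/ml G418, then compounds plus […] (300 uM addition stock), 30 min at 37C. cAMP read by HTRF (cAMP-d2 and anti-cAMP antibody-K in lysis buffer) after 30 min RT.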
D2 agonist – Beta-Arrestin HTS for Positive Allosteric Modulators of the Human D2 Dopamine Receptor: Agonists. D(2) dopamine receptor (Homo sapiens), P14416. DiscoveRx PathHunter D2 beta-arrestin, luminescence, 90 min; 100% = 57 uM dopamine signal. activation, % (test concentration not listed). 360,000 compounds, 0.084% hits; in the data active = activation above about 40%; inconclusive = about 15% to 40%; inactive = below about 15%; also: compound concentration not given in the record; the text of the record calls up to 30% inactive
Target sequence (P14416 whole entry, looked up): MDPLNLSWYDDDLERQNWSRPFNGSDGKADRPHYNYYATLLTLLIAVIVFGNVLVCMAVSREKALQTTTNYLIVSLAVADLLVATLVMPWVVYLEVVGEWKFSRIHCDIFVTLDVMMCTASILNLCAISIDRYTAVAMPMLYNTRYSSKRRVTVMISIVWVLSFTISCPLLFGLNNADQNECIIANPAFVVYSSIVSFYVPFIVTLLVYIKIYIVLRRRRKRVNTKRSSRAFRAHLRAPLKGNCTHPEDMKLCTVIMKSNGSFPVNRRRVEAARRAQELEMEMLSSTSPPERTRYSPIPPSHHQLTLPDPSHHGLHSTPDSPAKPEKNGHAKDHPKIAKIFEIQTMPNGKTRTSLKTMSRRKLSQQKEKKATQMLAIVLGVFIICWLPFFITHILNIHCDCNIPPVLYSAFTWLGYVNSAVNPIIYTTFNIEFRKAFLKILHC
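Agonist mode: compounds alone added to overnight-plated D2 PathHunter cells for 90 min at 37 C, with 57 uM final dopamine (EC100) defining full response. Beta-arrestin recruitment detected by chemiluminescent reagent, read after 1 h at ambient temperature.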
gsp agonist – qHTS for Agonist of gsp, the Etiologic Mutation Responsible for Fibrous Dysplasia/McCune-Albright Syndrome: qHTS; gsp mutant cells, cAMP HTRF, 30 min; control for the full effect not named in the record; Potency, µM (doses to about 76.9 µM), inactives show top-dose activation (cAMP increase), actives largely listed as activators; 340,000 compounds, 0.13% hits; AID 624287, 2012; active = well fitted activation curve with a large enough effect; inconclusive = small, poorly fitted or top-dose-only effect, or another doubt; inactive = no such curve, though single readings can be large or run the other way; cell line not stated here;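 also: phosphodiesterase inhibitor Ro 20-1724 added with compounds to block cAMP breakdown; potency is read from the fitted curve at half-maximal effect; nearly all actives have a fitted effect of over 60% in size; about a fifth of the inactives were tested at one dose only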
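Cells in DMEM/10% FBS with G418 were pretreated with compounds in DMSO plus […] (300 uM stock) for 30 min at 37C. cAMP was measured by HTRF (cAMP-d2 plus anti-cAMP antibody-K) after 30 min at room temperature.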
D2 potentiator – Beta-Arrestin HTS for Positive Allosteric Modulators of the Human D2 Dopamine Receptor: Potentiators; D(2) dopamine receptor (Homo sapiens), P14416; DiscoveRx D2 beta-arrestin cells, luminescence, 90 min; 100% = 57 uM dopamine signal; potentiation, % (concentration not given with the values); 360,000 compounds, 0.23% hits; AID 624464, 2012; active = potentiation of 50% or more; inconclusive = 30% to 50%; inactive = 30% or less;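 also: tested on top of an EC20 dose of dopamine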
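PathHunter beta-arrestin assay in DiscoveRx D2 cells. Compounds were added with an EC20 of dopamine (50 nM final) for 90 min at 37 deg C. Luminescence was read 1 h after detection reagent, with 57 uM dopamine as the EC100 control.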
Six1-Eya2 inh – qHTS Assay for Inhibitors of the Six1/Eya2 Interaction | Homeobox protein SIX1 (Homo sapiens) + Protein phosphatase EYA2 (Homo sapiens), … | AlphaScreen GST-Six1/His-Eya2 binding, biochemical; active compounds read low; control for the full effect not named in the record | activity change, % (test concentration not listed) | 360,000 compounds, 0.56% hits; in the data active = activity change below about -65%; inconclusive = about -30% to -65%; inactive = above about -30%; also: % is scaled to controls: 0 for no effect and ±100 for the full control effect
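Six1/Eya2 binding was read as AlphaScreen signal after compounds were pinned into GST-Six1 plus His-tagged Eya2 (5X stock 250/500 nM) in pH 8.0 Tris/NaCl/TCEP buffer, beads added, then incubated 1 h, 37 C, dark.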
An asterisk follows results filed as active; ? = inconclusive; nt = not tested or not shown; [ ] = dose if it differs, or a comment.

SMILES | CtBP-E1A inh | gsp antag | D2 agonist | gsp agonist | D2 potentiator | Six1-Eya2 inh
Fc1ccc(Cn2cnc3ccccc32)cc1 | 5 | -7% | -3.1 | 13% | -7 | 0
O=c1cc(-c2ccccc2)nc(Sc2ccc([N+](=O)[O-])cc2[N+](=O)[O-])[nH]1 | -2 | -18% | ? | 0%[15.4 µM] | 9 | -5
CCc1cccc2c(C(=O)C(F)(F)F)cn(CC(=O)NCC3CCCO3)c12 (stereo not drawn) | nt | -5% | -7.1 | 25% | -2 | -5
Cc1cccc(NC(=O)C2CCN(S(C)(=O)=O)CC2)c1C | 4 | 14% | -1.7 | -43%[inhibitor] | -1 | 1
Cc1nnc(NC(=O)C2CSC3(C)CCC(=O)N23)s1 (stereo not drawn) | 4 | 13% | -4.2 | -2%[15.4 µM] | 1 | -1
O=c1[nH][nH]c(C(F)(F)F)c1C=Nc1ccc(Cl)cc1 | 0 | -1% | -7.9 | 3% | -6 | -5
CC(=O)C1=CCC(c2ccc(Cl)c(Cl)c2)N(S(=O)(=O)c2ccc(C)cc2)C1 (stereo not drawn) | 1 | nt | -9.8 | nt | -3 | 1
c1ccc(-c2cnc(-c3ccccc3)nn2)cc1 | 0 | 7% | -3.3 | nt | -8 | 5
CCOc1ccc(NC(=O)CCS(=O)(=O)c2ccc3c(c2)CCCN3C(C)=O)cc1 | 4 | -13% | -1.6 | -18% | -16 | -1
O=C(NC(=S)Nc1ccc([N+](=O)[O-])cc1)c1ccco1 | 6 | nt | -3.5 | ? | -13 | -2
CCCCCN(C(=O)CCC(=O)OCC(=O)N(C)C1CCCCC1)c1c(N)n(CCCC)c(=O)[nH]c1=O | -4 | 14% | 3.1 | 4% | -2 | 4
O=C1CC(Nc2ccc(N3CCOCC3)cc2)C(=O)N1c1cccc(C(F)(F)F)c1 (stereo not drawn) | -20 | -8% | 6.2 | 15% | 3 | -16
O=C(Nc1ccccc1Cl)Oc1ccc(-c2ccccc2)cc1 | nt | 1% | -6.2 | 11% | 6 | 0
O=C(OCCc1cc2ccccc2c(=O)o1)c1ccc(C(F)(F)F)cc1 | 5 | -10% | -1.8 | -26% | -7 | 15
CC(C)Cc1nc(SCC(=O)N2CCOCC2)c2c(=O)n(C)c(=O)n(C)c2n1 | -1 | -9% | -1.0 | ? | 6 | -4
CC(C)CNC(=S)NC(=O)c1ccc([N+](=O)[O-])cc1 | 2 | -4% | -10 | -24% | 16 | -12
CCOc1ccccc1CN1CCNC(=O)C1CC(=O)NCc1nc(C)cs1 (stereo not drawn) | 0 | -7% | -6.1 | -19% | -27 | 15
O=C1c2ccccc2C2=Nc3ccccc3SC(c3ccccc3F)C12 (stereo not drawn) | ? | -7% | -7.1 | 10% | -33 | ?
Cn1c(N)c(C(=O)CN2CCc3ccccc3C2)c(=O)n(C)c1=O | 3 | 9% | 2.9 | ? | -12 | -2
COc1cccc2c(=O)n(CC(=O)N3CCCc4ccccc43)ccc12 | 0 | -3% | -4.1 | 22% | -4 | 1

The closing four entries of the part before come first, to join the parts.
SMILES | CtBP-E1A inh | gsp antag | D2 agonist | gsp agonist | D2 potentiator | Six1-Eya2 inh
CCOc1ccccc1CN1CCNC(=O)C1CC(=O)NCc1nc(C)cs1 (stereo not drawn) | 0 | -7% | -6.1 | -19% | -27 | 15
O=C1c2ccccc2C2=Nc3ccccc3SC(c3ccccc3F)C12 (stereo not drawn) | ? | -7% | -7.1 | 10% | -33 | ?
Cn1c(N)c(C(=O)CN2CCc3ccccc3C2)c(=O)n(C)c1=O | 3 | 9% | 2.9 | ? | -12 | -2
COc1cccc2c(=O)n(CC(=O)N3CCCc4ccccc43)ccc12 | 0 | -3% | -4.1 | 22% | -4 | 1
Cc1csc(NC(C)c2nc3cc(Cl)c(N4CCCCC4)cc3n2CCOCCO)n1 (stereo not drawn) | 4 | -9% | 2.3 | nt | 4 | -3
COc1ccc(S(=O)(=O)NCCc2cn3nc(C)c(C)nc3n2)cc1 | nt | 5% | -0.8 | ? | -13 | 0
Cc1ccc(S(=O)(=O)CCN2CCC(n3cccc3)CC2)cc1 | -6 | 8% | -0.1 | -4%[15.4 µM] | -17 | -3
Cc1cn(Cc2ccccc2)c(=O)[nH]c1=O | 3 | 5% | -1.0 | 3% | -9 | -2
CS(=O)(=O)N(CC(=O)N1CCCC1)c1ccccc1F | 5 | 7% | 1.3 | -38%[inhibitor] | -1 | 3
CC(C)(C)SCCNC(=O)c1ccc(CN2CCc3ccccc3C2)cc1 | -8 | 2% | 0.9 | 17%[15.4 µM] | -13 | 0
COC(=O)CC1=C(C(=O)OC)C(c2cc(OC)c(OC)cc2OC)C(C#N)=C(N)O1 (stereo not drawn) | 1 | -1% | 3.9 | 7% | 13 | -2
CSc1nc(N2CCOCC2)c2c(c1C#N)CC(C)(C)OC2 | 12 | -15% | 1.5 | 2% | 18 | -2
COc1cccc(CN(C)C(=O)c2cccc(OCc3ccccc3)c2)c1 | 0 | -11% | -7.1 | -2%[15.4 µM] | -9 | -4
C=CCN(C(=O)c1csnn1)C(C(=O)NC1CCCCC1)c1ccccc1 (stereo not drawn) | 4 | 0% | 0.2 | -8% | -7 | -1
CC1CN(C(=O)c2cccc(S(=O)(=O)Nc3ccc(Cl)cc3)c2)CC(C)O1 (stereo not drawn) | -4 | -23% | 0.1 | -20% | 11 | 6
CC(=O)N1c2ccccc2[C@H](C)[C@H]1C | 3 | -7% | -2.7 | -20% | -2 | 7
Cc1ccc(N=C2C(=O)Nc3ccccc32)cc1 | nt | -2% | -15 | -5% | -41 | -1
Cc1ccc(Cl)cc1NC(=O)COC(=O)C1CC1 | nt | -1% | -3.4 | -12% | -8 | -4
COc1ccc(CCNC(=O)CCSc2nc(-c3ccco3)cc(C(F)(F)F)n2)cc1OC | -1 | -23% | -0.6 | -1% | -11 | -10
CC1(c2ccc3c(c2)OCCO3)NC(=O)N(CC(=O)c2ccc[nH]2)C1=O (stereo not drawn) | 0 | -15% | -1.5 | 1% | 6 | 15
CCCNC(=S)Nc1ccc(CC(=O)OC)cc1 | -2 | 0% | 1.2 | 0% | -16 | 8
CN(C)c1nc(Nn2cnnc2)nc(N(C)C)n1 | 4 | -1% | 4.6 | 23%[15.4 µM] | 4 | 4
CCCCCCN1CCN(C2CN(C3CCCCC3)S(=O)(=O)C2)CC1 (stereo not drawn) | 3 | nt | -3.4 | nt | -14 | 7
CN(C)c1ccc(/C=N/NC(=O)CNC(=O)c2ccco2)cc1 | -14 | nt | -4.3 | -15%[15.4 µM] | -9 | 4
O=C(c1cccs1)N(Cc1ccco1)C1CCS(=O)(=O)C1 (stereo not drawn) | 8 | 4% | ? | 7% | 21 | 3
CCOC(=O)c1sc(NC(=O)C2=COCCO2)c(C#N)c1C | -8 | ? | -3.4 | -16%[15.4 µM] | -6 | -7
CC(C)(C)OC(=O)NCCCC[C@H](NC(=O)c1nc[nH]c1C(=O)NCC(=O)OCc1ccccc1)C(=O)OC(C)(C)C | -24 | -13% | -1.8 | -28% | -10 | 0
O=C(O)c1c(-n2cccc2)sc2c1CCCC2 | 3 | 3% | 1.8 | -2%[15.4 µM] | -1 | 3
CN(C)S(=O)(=O)c1ccc(Cl)c(C(=O)OCC(=O)c2ccco2)c1 | 10 | 6% | 0.9 | -16% | -2 | 5
c1ccc(CN2CCc3[nH]c4ccccc4c3C2)cc1 | -4 | 6% | 3.8 | -7% | -28 | -7
Cc1cc(C(=O)OC(C)C(=O)NC2CCCCC2C)c2ccccc2n1 (stereo not drawn) | 2 | nt | -3.5 | -142%[inhibitor] | -13 | 0
O=C(COC(=O)c1ccccc1O)NNC(=O)c1ccc(Br)cc1 | 5 | 28% | -6.9 | 5% | -17 | 3
Cc1cccc(NC(=O)CSc2nnc(C3CC3)n2CC2CCCO2)c1 (stereo not drawn) | -4 | -31% | 2.6 | 2%[15.4 µM] | -1 | 13
Cc1ccc(S(=O)(=O)N2CCC(Oc3ccc(-n4cnnn4)cc3)CC2)cc1 | nt | -7% | 4.7 | 2% | 0 | -1
C=CCNC(=S)/N=c1/ccccn1Cc1ccccc1 | nt | 4% | -7.1 | -1% | -26 | -1
c1ccc(NCc2cccc3ccccc23)nc1 | -1 | -17% | -0.2 | -8% | 0 | 0
O=C(N/N=C/c1ccncc1)c1cccc(S(=O)(=O)N2CCCC2)c1 | 2 | -5% | -0.9 | 22% | -14 | -6
CCC1=C2CC[C@H]3C(=O)N(c4ccccc4)C(=O)[C@H]3[C@H]2[C@@]2(C)C(=NCc3ccccc3)OC(=O)N2C1=O | 1 | -6% | -2.6 | 4% | -11 | 0
O=C(Cc1ccc(Cl)cc1)NC1CCCN(Cc2ccccc2F)C1 (stereo not drawn) | 2 | -9% | 0.9 | -2% | -2 | -1
Cc1cccc(/N=C/c2c(O)ccc3oc4c(c23)CCCC4)n1 | 7 | -2% | -4.6 | -68% | -24 | 6
CCOc1ccc(S(=O)(=O)NCc2csc(C)n2)cc1 | 21 | 9% | 2.6 | -3% | -6 | 3
CC1CCCCC12NC(=O)N(CC(=O)NC(=O)Nc1ccc3c(c1)OCCO3)C2=O (stereo not drawn) | -3 | 6% | 2.4 | ? | -2 | 4
CN(C)c1ccnc(-n2cccc2/C=N/OCc2ccc(F)cc2Cl)c1C#N | -7 | -6% | -1.1 | -17% | 23 | -6
Cc1ccc(C)c(NC(=S)NC(NC(=O)Cc2cccc3ccccc23)C(Cl)(Cl)Cl)c1 (stereo not drawn) | 0 | -2% | -3.9 | -11% | -4 | 16
CC(NCC(=O)Nc1ccccc1C(=O)NC1CC1)c1ccccc1Cl (stereo not drawn) | 2 | -1% | 0.6 | -19% | 8 | 4
COc1ccc(S(=O)(=O)NC(C)CCc2ccccc2)cc1 (stereo not drawn) | 16 | -1% | 1.7 | 2%[15.4 µM] | 0 | 4
NNC(=O)CN1C(=O)C2(OCCO2)c2ccccc21 | 4 | nt | -1.4 | -43% | 0 | 1
N/C(=N\OC(=O)c1cccs1)c1ccc(Cl)cc1 | nt | -1% | 50* | 0% | ? | -3
